Screening data as filed in PubChem BioAssay.
VDR inh – vitamin D3 receptor (human) inhibition; P11473; 400,000 tested, 0.93% active; VDR-SRC2-3 peptide fluorescence polarization, 2 h; Potency, µM, for inactives: max response, negative = inhibition, most hits filed as inhibitors; active = well fitted inhibition curve with a large enough effect; inconclusive = small, poorly fitted or top-dose-only effect, or another doubt; inactive = no such curve, though single readings can be large or run the other way; also: series mostly up to about 120 µM
Target sequence (P11473 whole entry, looked up): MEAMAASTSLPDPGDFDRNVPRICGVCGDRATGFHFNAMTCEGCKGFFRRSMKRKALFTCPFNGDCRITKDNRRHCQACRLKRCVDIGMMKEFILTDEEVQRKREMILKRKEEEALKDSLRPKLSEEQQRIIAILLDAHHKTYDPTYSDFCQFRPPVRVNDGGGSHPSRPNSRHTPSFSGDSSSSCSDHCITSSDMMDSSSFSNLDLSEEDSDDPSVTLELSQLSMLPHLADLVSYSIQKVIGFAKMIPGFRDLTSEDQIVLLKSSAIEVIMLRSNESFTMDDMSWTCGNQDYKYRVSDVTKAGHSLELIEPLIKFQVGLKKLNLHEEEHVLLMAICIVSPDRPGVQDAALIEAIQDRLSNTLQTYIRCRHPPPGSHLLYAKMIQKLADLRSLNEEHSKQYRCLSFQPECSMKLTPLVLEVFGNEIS
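Two reagent solutions held at 4 deg C in the dark were dispensed, compounds pinned at 23 nl, and the mixture incubated 2 h at room temperature. Read-out: fluorescence polarization of VDR–SRC2-3 peptide binding.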
Starred values were filed as active, the others as inactive; u = inconclusive; & = joins results of further samples. % is scaled to controls: 0 for no effect and ±100 for the full control effect; potency is read from the fitted curve at half-maximal effect.

SMILES | VDR inh
Cc1cc(N)n(-c2ccc(S(N)(=O)=O)cc2[N+](=O)[O-])n1 | -4%
COC(=O)CN1C(=S)N(c2ccc(OC)cc2)C(=O)/C1=C/c1ccc(N2CCOCC2)cc1 | -11%
COc1ccc(CCNC(=O)C2CCN(S(=O)(=O)c3cccc4nsnc34)CC2)cc1OC | -3%
CCc1cnc2c(c1SCC(=O)NCc1ccc(F)cc1)c(=O)n(C)c(=O)n2C | 1%
CC(C)CNC(=O)NC(=O)COC(=O)Cn1cnc2ccccc2c1=O | 8%
Cc1nn(Cc2ccc(F)cc2)c(C)c1NC(=O)CCCn1nc([N+](=O)[O-])cc1C | 8%
CCC1CC2CC(NC(C)=O)C1C2 (configuration not stated) | 11%
CSCCC(NC(=O)c1ccccc1Cl)C(=O)Nc1ccc(C)c(S(=O)(=O)N2CCOCC2)c1 (configuration not stated) | 18%
Cc1ccc(-n2ncc3c2CC(C)(C)CC3NC(=O)CCN2CCCO2)cc1 (configuration not stated) | 11%
Oc1ccc2ccccc2c1CN1CCOCC1 | u
COc1ccc(S(=O)(=O)N(C)C[C@H]2Oc3ccc(NS(=O)(=O)c4cccs4)cc3C(=O)N([C@H](C)CO)C[C@@H]2C)cc1 | 4%
CC1(C)C2CCC(C2)C1(C)NC(=O)CN1CCOCC1 (configuration not stated) | 6%
CCOC(=O)c1ccc(-n2c(CN3CCOCC3)nc3ccc([N+](=O)[O-])cc3c2=O)cc1 | 0%
Cc1[nH]n(-c2ccccc2)c(=O)c1CCOC(=O)c1ccc(C(F)(F)F)cc1 | -1%
O=C(COc1ccccc1Cl)Nc1nc(-c2cccs2)cs1 | 6%
CCCc1nc2c(ccc3ccccc32)cc1CC | -11%
COC(=O)c1cn(C(=O)c2cccc(Br)c2)c2ccccc12 | -10%
O=C(Nc1nnc(SCc2ccccc2Cl)s1)C1COc2ccccc2O1 (configuration not stated) | 7%
O=C1NC(c2cc(Cl)cc([N+](=O)[O-])c2O)Nc2ccccc21 (configuration not stated) | -13%
CC(C)Nc1nnc(SCC(=O)c2c(N)n(Cc3ccccc3)c(=O)n(C)c2=O)s1 | -13%
O=Cc1c[nH]c2ccc(OCc3ccccc3)cc12 | -17%
COc1ccc(OC)c(NC(=O)c2ccc(-c3csc(C)n3)cc2)c1 | -6%
CC(OC(=O)/C=C/c1ccccc1)C(=O)Nc1ccc(C(N)=O)cc1 (configuration not stated) | 3%
O=C(CSc1ccc(-c2ccccc2)nn1)N1CCCCC1 | 0%
CCOc1ccc(N(CC(=O)NC2CCCCC2)S(=O)(=O)c2ccc(C)cc2)cc1 | -4%
COc1ccc(C(C)(C)C)cc1NC(=O)c1cccc(S(=O)(=O)N2CCN(C(C)=O)CC2)c1 | 3%
CCN(CC)CCOC(=O)c1ccc(NC(=O)CCCN2C(=O)/C(=C/c3cccs3)SC2=S)cc1 | -3%
CC(=O)Nc1c(C)ccc([N+](=O)[O-])c1C | -9%
CC(/C=C/c1ccccc1)=N\Nc1nc(-c2ccccc2)cs1 | -9%
Cc1cc(C)c(C(=O)N2CCCC(CNC(=O)C3(c4ccc(Cl)cc4)CC3)C2)c(=O)[nH]1 (configuration not stated) | -4%
CCN(CC)CCN(CC(=O)Nc1c(C)cc(C)cc1C)C(=O)c1ccccc1 | 12%
COc1ccccc1CCN1CCCC(CN(C)C(=O)c2ccco2)C1 (configuration not stated) | -12%
Cc1oc2cc3oc(=O)c(CCC(=O)N4C[C@H]5C[C@@H](C4)c4cccc(=O)n4C5)c(C)c3cc2c1C | -10%
O=C(CCN1C(=O)/C(=C/c2ccc(Cl)cc2)SC1=S)Nc1ccc(C(=O)O)cc1 | 0%
C[C@]12c3[nH]c4ccccc4c3CCN1C(=O)C(CC(=O)NCCCn1ccnc1)C[C@@H]2C(=O)N1CCOCC1 (some centres not stated) | -21%
NC(=O)COC(=O)c1ccc2c(c1)S(=O)(=O)N=C1CCCCCN12 | -16%
COc1ccccc1NS(=O)(=O)c1cccc(NC(=O)C2CC2)c1 | 2%
CCOC(=O)c1cnc(SCC(=O)Nc2sc(C)c(C)c2C#N)nc1N | -1%
CC(C)Oc1ccc(CNC(=O)CCCN2C(=O)CCn3nc(-c4cccn4C)cc32)cc1 | 7%
CC(CCN1CCN(CCO)CC1)c1ccccc1 (configuration not stated) | 6%
O=C(CNC(=O)c1ccccc1F)OCC(=O)c1c[nH]c2ccccc12 | 4%
CN1CCN(c2ccc([N+](=O)[O-])cc2C(=O)Nc2ccccc2)CC1 | 9%
Cc1ccc2nc(CSc3nnc(NC(=O)c4ccc(C(C)(C)C)cc4)s3)cc(=O)n2c1 | -6%
CC(OC(=O)c1nn(C)c(=O)c2ccccc12)C(=O)Nc1ccc(S(N)(=O)=O)cc1 (configuration not stated) | 14%
COc1ccccc1S(=O)(=O)Cc1ccc(C(=O)NCCN2CCCC2)o1 | 1%
CC1=CC(=C(C#N)C#N)C=C(C)N1CCC(C)C | -21%
COc1ccccc1-c1cc(C(=O)NCc2cccs2)no1 | 8%
O=C(NCCC1=CCCCC1)C1CCN(C(=O)N2CCOc3ccccc32)CC1 | 11%
CC(C)NC(=O)c1ccc(N2CCOCC2)nc1 | 5%
COc1ccc(-c2nc3ccc(C)cc3c(=O)o2)cc1OC | 1%
Cc1nn(C(=O)c2cccs2)c(N)c1-c1ccccc1 | -16%
CC(NC(=O)c1ccc(NC(=O)c2nsc3ccccc23)cc1)c1ccccc1 (configuration not stated) | 16%
O=C(CSc1nccn1C1CCCC1)Nc1ccc(C(F)(F)F)cc1 | 4%
COc1ccc(NC(=O)CN(C)C(=O)CNC(=O)c2ccc(C)s2)cc1 | -3%
CN(C)c1ccc(NC(=O)CN2CCC(NC(=O)C3CCCCC3)CC2)cc1 | -5%
COc1ccccc1CC(NC(C)=O)C(=O)NC1CCN(c2nnnn2-c2ccccc2)CC1 (configuration not stated) | 0%
OCCOc1nnnn1-c1ccccc1 | 5%
Cc1[nH]n(-c2ccccc2)c(=O)c1C(c1ccccc1[N+](=O)[O-])C(C#N)C#N (configuration not stated) | 89µM*
CCCCNC(=O)CSc1nc2cc3c(cc2c(=O)n1CCCC(=O)NCc1ccc2c(c1)OCO2)OCO3 | -5%
Cc1ccc(O)c(C2=NOC(O)(C(F)(F)C(F)F)C2)c1 (configuration not stated) | 12%
Additional records:
SMILES | VDR inh
CC(C)C(=O)Nc1cc2c3c(c1)CCC(=O)N3CCC2 | 6%
CC1(C)NC(=S)NC1=S | -13%
CN(C)CCCNC(=O)CC(c1ccc(F)cc1)c1ccco1 (configuration not stated) | 0%
COc1ccc(Cl)cc1NC(=O)NCCN1CCNC1=O | -6%
O=C(Nc1cc(-c2nc3ccccc3s2)ccc1Cl)c1cc2ccccc2o1 | 12%
CC(C)NCC(O)c1cc(O)cc(O)c1 (configuration not stated) | -14%
COc1ccc(S(=O)(=O)N2CCC(O)(c3cccnc3)CC2)cc1OC | -12%
CC(=O)NCC(=O)N1CCCC(C(=O)c2ccc(Oc3ccccc3)cc2)C1 (configuration not stated) | 8%
COc1cc(NC(=S)N2CCCC2)cc(OC)c1 | -6%
Cn1c(=O)c2c(nc(Oc3ccccc3Cl)n2C)n(C)c1=O | 5%
O=C(NCc1ccccc1)C(c1ccc(F)cc1)N(C(=O)c1csnn1)C1CCCC1 (configuration not stated) | -7%
COc1ccccc1C(=O)C1CCCN(C(=O)c2ccc(C(C)=O)s2)C1 (configuration not stated) | -5%
O=C(O)COc1ccc(-c2nc(-c3ccccc3)c(-c3ccccc3)[nH]2)cc1 | 7%
O=C(c1cc(Br)ccc1Cl)N1CCN(c2ncccn2)CC1 | u
CCCCn1nc(C(=O)NCC(c2cccs2)N2CCOCC2)c2ccccc2c1=O (configuration not stated) | -4%
COC(=O)Cc1cc(=O)oc2cc(OC)ccc12 | -11%
COc1ccc(NC(=O)c2oc3ccc4c(c3c2C)C(=O)CC(C)(C)O4)cc1OC | 16%
CSc1cc(-c2ccc(Cl)cc2)n(Cc2ccccc2)c(=O)c1C#N | -3%
CCOc1ccc(S(=O)(=O)Nc2cccc(C(=O)N3CCN(c4cccc(OC)c4)CC3)c2)cc1 | 0%
S=c1sc2c(Cl)ncnc2n1-c1ccccc1 | -9%
CCN1C(C)=C(C(=O)OC(C)C)C(c2ccccc2Cl)C(C(=O)O)=C1C(=O)O (configuration not stated) | 1%
COc1ccc(C(=O)CNc2cccc(F)c2)cc1 | 7%
CCOc1ccc(-n2cc(C(=O)N3CCN(C)CC3)c3cc(OC)c(OC)cc3c2=O)cc1 | -18%
COCCc1nc2ccc(C(=O)N3CCCCC3COC)cc2o1 (configuration not stated) | 5%
Cc1cccc(-c2noc(CSc3ccccc3)n2)c1 | 2%
CC(=O)Nc1ccc(Nc2cc(C)nc3c(-c4ccc(Cl)cc4)c(C)nn23)cc1 | 4%
O=C(CCC(=O)N(CC(=O)NC1CCCCC1)c1ccc(F)cc1)Nc1ccccn1 | -9%
CC(=O)C1=C(O)C(=O)OC1c1ccc(Cl)cc1 (configuration not stated) | 15%
CN1CCN(NC(=O)c2cc(-c3ccccn3)nc3ccccc23)CC1 | -16%
COC(=O)c1ccc(NC(=O)c2nn(C)c3c2CS(=O)(=O)c2ccccc2-3)cc1 | 5%
Cc1ccccc1NC(NC(=O)c1cccs1)C(Cl)(Cl)Cl (configuration not stated) | 1%
COc1ccc(Cl)cc1NC(=O)Cn1cc(S(=O)(=O)Cc2cccc(Cl)c2)c2ccccc21 | 17%
O=C(Nc1cccc(C(=O)N2CCCCC2)c1)c1nsc2ccccc12 | 16%
O=C(COc1ccc2c(c1)CCC2)Nc1ccccn1 | -13%
COC(=O)Cn1c(=O)c2c(nc3n2CCN3c2ccc(F)cc2)n(C)c1=O | 1%
COc1ccc(CNC(=O)CS(=O)(=O)Cc2nc(-c3ccc(OC)cc3)oc2C)cc1 | -12%
CCOc1ccc(C(=O)NCC(=O)N2CCCCCCC2)cc1 | -13%
Cc1cc(=O)n2c3ccccc3n(C)c2n1 | -12%
CSc1ncccc1C(=O)OCC(=O)Nc1nc(C)c(Cl)cc1Cl | 11%
COc1cc(C(=O)Nc2nc3ccc(C)cc3s2)ccc1OCc1c(C)noc1C | -1%
Cc1ccc(S(=O)(=O)c2c(N)n(CCCN(C)C)c3nc4ccccc4nc23)cc1 | -8%
CCNc1ncc2nc(-c3cc(F)cc(F)c3)c(=O)n(Cc3cccs3)c2n1 | -2%
CCOC(=O)C1=NNC(C(=O)c2ccccc2)C1c1ccc(Cl)cc1 (configuration not stated) | -20%
COC(=O)C1CCN(C(=O)C2CCCCC2)CC1 | 9%
Clc1ccc(Cc2ccc(SCc3ccccc3)nn2)c(Cl)c1 | -5%
Cn1c(=O)oc2cc(S(=O)(=O)NCc3cccnc3)ccc21 | -15%
CCc1nnc2c(Nc3cccc(C(C)=O)c3)nc3ccccc3n12 | 5%
COc1ccc(NC(=S)N2CCC(C(=O)c3ccc(Cl)cc3)CC2)cc1 | -11%
CC(=O)c1c(C)[nH]c(C(=O)OCC(=O)N(C)c2c(N)n(Cc3ccccc3)c(=O)[nH]c2=O)c1C | -4%
Cc1cc(C)nc(SCCC(=O)Nc2ccccc2Cl)n1 | -6%
CCOC(=O)c1ccc(NC2c3ccccc3C(=O)N2c2cccnc2)cc1 (configuration not stated) | 2%
CCOc1ccc(NC(=O)c2nc(S(=O)(=O)Cc3ccccc3F)ncc2Cl)cc1 | u
CSc1ncccc1C(=O)OCC(=O)NCCCc1ccccc1 | -5%
COCCCNC(=O)CCN1N=C(c2ccccc2)CCC1=O | 6%
COc1ccc(-c2nc3cnc(Nc4ccccc4)nc3n(Cc3cccs3)c2=O)cc1 | 0%
COc1cc(C(CCN2CCCC2)c2c(OC)cc(OC)c3c(-c4ccccc4)cc(=O)oc23)cc(OC)c1OC (configuration not stated) | -1%&3%
COC(=O)c1ccccc1NC(=O)c1cc2ccccc2o1 | 10%
c1ccc(C2OCCN2c2ccccc2)cc1 (configuration not stated) | 15%
O=C(COC(=O)CNC(=O)c1ccccc1Cl)Nc1cc(C(F)(F)F)ccc1Cl | -12%
COc1cccc(NC(=O)c2ccccc2Oc2ccccc2)c1 | -11%
(list continues)
SMILES | VDR inh
COc1ccc(C(=O)N2CCC(C(=O)Nc3cccc(C)c3)CC2)cc1OC | -2%
CCO[C@H]1OC(C(=O)N2CCN(C)CC2)=C[C@@H](c2ccc(Br)cc2)[C@@H]1CCCO | 0%
COCCc1ccc(OC[C@H](O)CNC(C)C)cc1 | 1%
Cc1ccc(-c2cc(C(F)(F)F)n3ncc(C(=O)NCc4ccco4)c3n2)cc1 | -2%
CC(C)CC1NC(=O)N(CC(=O)N2c3ccccc3NC(=O)C2(C)C)C1=O (configuration not stated) | 8%
O=C(O)CC(CC(=O)NCC(O)c1ccccc1)c1ccccc1 (configuration not stated) | -4%

Only part of the results is shown; rates above refer to the full screens.
